From PubChem
GALR2 ag – GALR2 (human) receptor agonism. 0.48% of 140,000 active. activation, %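 (tested at 5 µM)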. GALR2-expressing cells, agonist activation read-out. O43603;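 active = above mean plus 3 SD of all compounds, about 5% in these data, not always enough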;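 also: 0% = vehicle buffer wells and 100% = reference agonist at full effect; tested in CHO reporter cells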
Target sequence (O43603 whole entry, looked up): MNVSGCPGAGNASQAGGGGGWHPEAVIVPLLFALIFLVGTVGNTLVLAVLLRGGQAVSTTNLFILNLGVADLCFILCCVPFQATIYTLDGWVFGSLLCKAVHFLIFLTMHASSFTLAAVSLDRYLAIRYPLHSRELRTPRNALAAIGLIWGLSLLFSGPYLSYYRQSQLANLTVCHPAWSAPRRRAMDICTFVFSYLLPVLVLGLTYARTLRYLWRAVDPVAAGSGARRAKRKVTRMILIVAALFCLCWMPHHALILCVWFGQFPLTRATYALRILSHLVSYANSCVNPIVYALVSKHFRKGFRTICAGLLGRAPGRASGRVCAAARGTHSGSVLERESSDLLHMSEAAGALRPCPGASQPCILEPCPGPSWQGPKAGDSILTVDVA
RGS16-Gao HTS – regulators of human RGS16-Galphao interaction. binding response (% of control), % at 10 µM. bead-based flow cytometry RGS16-Galphao binding, fluorescence; actives lie on both sides. AID 1441. 0.38% of 220,000 active;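 active = below 25% or above 175%, edge rows of some plates excepted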;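 also: Galphao activated by GDP with aluminum fluoride before binding; 100% = wells without compound and 0% = beads without RGS; some results beyond the cut were filed as inactive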
Target sequence (O15492 whole entry, looked up): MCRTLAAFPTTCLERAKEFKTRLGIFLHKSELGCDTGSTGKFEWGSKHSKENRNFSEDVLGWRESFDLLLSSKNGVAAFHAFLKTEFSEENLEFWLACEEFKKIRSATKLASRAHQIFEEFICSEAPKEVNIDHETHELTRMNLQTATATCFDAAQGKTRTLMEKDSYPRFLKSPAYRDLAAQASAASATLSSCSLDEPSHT
Target sequence (P09471 whole entry, looked up): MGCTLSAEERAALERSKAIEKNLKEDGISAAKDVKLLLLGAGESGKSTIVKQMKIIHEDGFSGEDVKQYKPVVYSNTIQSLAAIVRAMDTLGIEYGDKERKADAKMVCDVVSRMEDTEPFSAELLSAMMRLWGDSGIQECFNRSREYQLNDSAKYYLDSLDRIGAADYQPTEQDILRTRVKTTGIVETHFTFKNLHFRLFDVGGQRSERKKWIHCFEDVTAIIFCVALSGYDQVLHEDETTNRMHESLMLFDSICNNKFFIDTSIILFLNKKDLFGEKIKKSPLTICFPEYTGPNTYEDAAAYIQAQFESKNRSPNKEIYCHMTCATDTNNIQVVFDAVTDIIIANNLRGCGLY
HSV augment – increases HSV replication in cells; HSV replication augmentation in cells, fold increase; 0.005% of 220,000 active; maximum fold increase;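 active = peak rise of 1.5-fold or more in the series; tested in PC3 cells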;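 also: first round at 10 µM; read as green reporter fluorescence; hits show the peak of a series up to 25 µM; 1 = signal of infected wells without compound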
PKD1 kinase inh – inhibitors of human PKD1 kinase; AID 797; 0.056% of 200,000 active; Q15139; PKD1 kinase fluorescence polarization assay; inhibition, %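 (about 10 µM by stock and volumes)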;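 active = inhibition of 50% or more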;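 also: controls were vehicle for no effect and a reference inhibitor for full effect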
Insulin prom inh – TRM-6 insulin promoter activity inhibition; TRM-6 cells (human fetal islet line), insulin promoter-eGFP reporter, imaging; reporter expression induced with tamoxifen; inhibition, % at 2 µM; 0.9% of 130,000 active;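 active = inhibition above the mean plus 3 SD, with well images judged a real hit on visual review, cut at about 60% in these data, passing the limit was not always enough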
Insulin prom inh cell count – also measured in Insulin prom inh; calls as there; normalized cell count, %; measured here: cell count, toxicity; reference of the scale not given here;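 cells exposed to compound for 48 h; stained nuclei by imaging scaled within each plate; lower means fewer cells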
HSV augment primary fold – second read-out of HSV augment, no call of its own (marks repeat the call); fold increase; compound at 10 µM; measured here: primary screen fold increase 10 uM; tested in PC3 cells;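 GFP signal in the first replicate; 1 = infected wells without compound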
An asterisk follows results filed as active; i = inactive; . = no result given.

SMILES | GALR2 ag | RGS16-Gao HTS | HSV augment | HSV augment primary fold | PKD1 kinase inh | Insulin prom inh | Insulin prom inh cell count
N#Cc1cccnc1Nc1cccc(Cl)c1 | -1.8 | 101 | i | 0.96 | 6 | 50 | 169
COc1cc(NS(=O)(=O)c2ccc(NC(=O)COc3ccccc3C)cc2)nc(OC)n1 | -1.6 | 88 | i | 0.9 | -9 | 38 | 117
FC(F)(F)c1cc(-c2ccc(Cl)cc2)nc(NCc2cccnc2)n1 | -1.4 | 101 | i | 0.93 | 1 | -15 | 123
CN(C)S(=O)(=O)c1ccc(N2CCCC2)c(C(=O)Nc2ccc(N3CCOCC3)cc2)c1 | -1.9 | 101 | i | 0.87 | -1 | 35 | 96
Cc1nc2cc(-c3cccc(F)c3)nn2c(N2CCN(C(=O)c3ccco3)CC2)c1C | -2.9 | 103 | . | . | 5 | 4 | 76
NS(=O)(=O)c1ccc(CCNC(=S)Nc2ccc(S(N)(=O)=O)cc2)cc1 | 1.1 | 103 | i | 0.89 | -11 | -18 | 137
CSc1ccc(CN2C(=O)NC3(CCCCCCC3)C2=O)cc1 | . | 102 | i | 0.87 | 5 | . | .
CC1(C)CC(=O)C2=C(C1)Nc1[nH]n(-c3ccccc3)c(=O)c1C2c1ccc2c(c1)OCO2 (centres undefined) | -1.9 | 104 | i | 0.83 | 3 | 32 | 117
O=C(CN1C(=O)/C(=C\c2ccc(C(F)(F)F)cc2)Sc2ccccc21)NCc1ccco1 | -1.4 | 92 | i | 0.84 | -5 | 8 | 70
Cc1ccc(Nc2nc(C)cs2)cc1 | . | 96 | i | 1.1 | 1 | . | .
CCOC(=O)c1ccc(Cn2cnc3ccccc3c2=O)cc1 | 1.4 | 100 | i | 0.96 | -5 | -19 | 94
CC(C)Oc1cccc(C(=O)C2CCCN(Cc3cnc(N4CCOCC4)s3)C2)c1 (centres undefined) | . | 105 | i | 0.98 | -8 | -43 | 199
CO/N=C/NC(=O)c1c(OC)ccnc1Oc1ccc(F)cc1 | -1.7 | 99 | i | 1.1 | -9 | -63 | 89
O=C(O)c1cccc(N/N=C/c2sc(N3CCOCC3)nc2-c2ccccc2)c1 | 0.7 | 105 | i | 0.95 | -2 | 47 | 122
COc1cc(C(=O)NCCCN2CCCC2=O)cc(OC)c1OC | -0.3 | 100 | i | 1.4 | -6 | -23 | 76
O=C(CN(Cc1ccc(F)cc1)S(=O)(=O)c1ccc(S(=O)(=O)N2CCOCC2)cc1)Nc1ccccc1 | -0.8 | 101 | i | 0.75 | 1 | -36 | 102
COc1ccc(-c2cc(C(F)(F)F)nc(S(=O)(=O)CCC(=O)N3CCOCC3)n2)cc1 | 0.3 | 103 | i | 0.84 | -11 | -55 | 52
Cn1c(=O)cc(OCCCC(=O)NCCCN2CCN(Cc3ccccc3)CC2)c2ccccc21 | -1.4 | 108 | i | 0.91 | -10 | 7 | 91
CCc1ccc(N2C(=O)CN(Cc3cc(OC)c(OC)c(OC)c3)C2=S)cc1 | 0.0 | 101 | i | 0.83 | 0 | . | .
Oc1ccc(-c2nccc(-c3ccc(Cl)cc3)n2)cc1 | . | 97 | i | 0.96 | -6 | . | .
CCCCNC(=S)NNc1c(Cl)cc(Cl)cc1Cl | . | 106 | i | 0.94 | -1 | -50 | 105
CCOc1ccccc1NC(=O)N1CCC(n2nnc3cc(C)ccc32)CC1 | -1.5 | 110 | i | 0.93 | 4 | -57 | 145
O=C(c1cccc2nc3ccccc3nc12)N1CCOCC1 | . | 104 | i | 0.96 | . | . | .
C=CCNC(=O)c1sccc1Oc1ccc(F)cc1[N+](=O)[O-] | . | 99 | i | 1 | 2 | . | .
Cc1c(-c2cccs2)[n+](=O)c2c(n1[O-])CCCCC2 | -1.0 | 98 | i | 0.93 | -3 | . | .
Cc1ccc(C(=O)NNC(=O)C2CCN(Cc3ccc(Cl)c(Cl)c3)CC2)cc1 | -2.9 | 101 | i | 1 | -5 | 17 | 78
O=C1NC(c2cn(-c3ccccc3)nc2-c2cccs2)C(C(=O)c2cccnc2)C(O)(C(F)(F)F)N1 (centres undefined) | -1.6 | 127 | i | 0.84 | -5 | 48 | 67
c1cn2cc(-c3ccc4c(c3)OCO4)nc2s1 | -1.0 | 98 | i | 0.95 | 3 | . | .
Cc1ccccc1NC(=O)/C=C/c1cccc(C(F)(F)F)c1 | -1.9 | 100 | i | 0.94 | 0 | 37 | 127
COc1ccc(CN2CCCC2C(=O)Nc2ccc(OC)c(OC)c2)cc1OC (centres undefined) | -0.4 | 104 | i | 0.94 | -2 | . | .

Laid out differently: entries from further up.
> CCc1ccc(N2C(=O)CN(Cc3cc(OC)c(OC)c(OC)c3)C2=S)cc1
  GALR2 ag = 0.0 | RGS16-Gao HTS = 101 | HSV augment = i | HSV augment primary fold = 0.83 | PKD1 kinase inh = 0 | Insulin prom inh = . | Insulin prom inh cell count = .
> Oc1ccc(-c2nccc(-c3ccc(Cl)cc3)n2)cc1
  GALR2 ag = . | RGS16-Gao HTS = 97 | HSV augment = i | HSV augment primary fold = 0.96 | PKD1 kinase inh = -6 | Insulin prom inh = . | Insulin prom inh cell count = .
> CCCCNC(=S)NNc1c(Cl)cc(Cl)cc1Cl
  GALR2 ag = . | RGS16-Gao HTS = 106 | HSV augment = i | HSV augment primary fold = 0.94 | PKD1 kinase inh = -1 | Insulin prom inh = -50 | Insulin prom inh cell count = 105
> CCOc1ccccc1NC(=O)N1CCC(n2nnc3cc(C)ccc32)CC1
  GALR2 ag = -1.5 | RGS16-Gao HTS = 110 | HSV augment = i | HSV augment primary fold = 0.93 | PKD1 kinase inh = 4 | Insulin prom inh = -57 | Insulin prom inh cell count = 145

Continued:
SMILES | GALR2 ag | RGS16-Gao HTS | HSV augment | HSV augment primary fold | PKD1 kinase inh | Insulin prom inh | Insulin prom inh cell count
CC1CN(C(=O)c2ccncc2)CC(C)O1 (centres undefined) | -1.6 | 96 | i | 0.97 | -1 | -62 | 123
NC(=O)C1CCN(C(=O)CCCCCn2c(=O)[nH]c3ccsc3c2=O)CC1 | -0.6 | 54 | i | 1 | -12 | -21 | 103
CCOC(=O)CSc1cc(CS(C)(=O)=O)nc(-c2ccccn2)n1 | . | 107 | i | 0.88 | -5 | -18 | 157
CCn1c(SCC(=O)Nc2nc3ccccc3s2)nnc1-c1ccc(Br)cc1 | 1.1 | 105 | i | 1.1 | 2 | 33 | 87
O=C(NNS(=O)(=O)c1ccc([N+](=O)[O-])cc1)c1cnn(-c2ccccc2)c1-n1cccc1 | 1.1 | 54 | i | 0.81 | -1 | 25 | 111
CN1CCN(CC(O)COc2ccc(OCC(O)CN3CCN(C)CC3)cc2)CC1 (centres undefined) | -1.6 | 103 | i | 1 | -5 | -25 | 43
CC1CCN(S(=O)(=O)c2cccc(C(=O)NCc3ccco3)c2)CC1 | -0.4 | 99 | i | 0.95 | 3 | -38 | 100
CCCc1cc(=O)n2[nH]c(-c3ccco3)nc2n1 | -2.0 | 104 | i | 1 | 1 | 50 | 46
COc1cc2ccccc2cc1C(=O)NCC(c1cccs1)N(C)C (centres undefined) | . | 94 | i | 0.84 | -7 | . | .
CCN(CC)CCNCc1ccc(Br)cc1OCC(=O)NCc1ccccc1 | . | 103 | i | 0.93 | 2 | . | .
O=C(NC1CCCCCCC1)c1ccc(S(=O)(=O)N2CCCC2)cc1 | 1.0 | 73 | i | 0.84 | 0 | 24 | 109
CCOC(=O)c1oc2ccc(OC)cc2c1NC(=O)CN1CCN(C)CC1 | -3.7 | 91 | i | 0.9 | -5 | 22 | 91
COC(CNC(=O)C1CCCN(S(=O)(=O)c2c(C)noc2/C=C/c2cccs2)C1)OC (centres undefined) | . | 99 | i | 1 | 0 | -82 | 90
Cc1cc(NC(=O)CSc2nnc(-c3cccnc3)n2C2CCCCC2C)no1 (centres undefined) | -1.6 | 103 | i | 0.9 | -2 | -23 | 159
CCOc1ccc2nc(Cl)c(C3CC(c4ccco4)=NN3S(=O)(=O)c3ccccc3)cc2c1 (centres undefined) | -1.0 | 86 | i | 1.1 | -10 | 25 | 65
CS(=O)(=O)N(CC(=O)NCCSCc1c(F)cccc1Cl)c1ccc2c(c1)OCO2 | -0.1 | 104 | i | 0.99 | -6 | -41 | 80
COc1ccc(NC(=O)CCNS(=O)(=O)c2ccc3c(c2)c(=O)n(C)c(=O)n3C)c(OC)c1 | -2.1 | 75 | i | 0.99 | -11 | -11 | 72
CCOC(=O)CCc1c(C)n(CC)c2cc(-c3ccccc3OC)nn2c1=O | -0.7 | 98 | i | 0.98 | -27 | . | .
COc1ccc(-c2cc(N3C(=O)Nc4ccccc4N3O)n[nH]2)c(OC)c1 | . | 99 | i | 0.97 | -4 | . | .
Cc1ccn(S(=O)(=O)c2ccc(C(C)(C)C)cc2)n1 | -2.4 | 101 | i | 0.94 | -3 | -67 | 91
COc1ccc(Cl)cc1NC(=O)CSc1nnc(-c2ccncc2)n1CC1CCCO1 (centres undefined) | -1.7 | 116 | i | 0.89 | -3 | 27 | 117
Cc1ccc(S(=O)(=O)NC(N)=NCCc2ccc(Cl)cc2)cc1 | -1.0 | 102 | i | 0.88 | 10 | . | .
Cc1ccc(C(=O)N2NC(c3ccccc3F)C3C(=O)N(c4cccc(C)c4)C(=O)C32)cc1 (centres undefined) | -2.8 | . | . | . | -9 | 19 | 121
COc1ccc(-n2c(SCC(=O)Nc3cccc(S(N)(=O)=O)c3)nc3ccccc3c2=O)cc1OC | . | 98 | i | 1 | . | . | .
Cc1cccc(NC(=S)NC(=O)c2ccc(Br)o2)c1 | . | 98 | i | 0.91 | -6 | . | .
COCCn1nnnc1C(c1cc2c(C)cc(C)cc2[nH]c1=O)N1CCCCCC1 (centres undefined) | 1.0 | 92 | i | 0.84 | -9 | . | .
Cc1ccc(NS(=O)(=O)c2cccc(C(=O)O)c2)cc1S(=O)(=O)N1CCCCC1 | -0.6 | 115 | i | 1.1 | 0 | 26 | 59
O=C(NC12CC3CC(CC(C3)C1)C2)c1cncc(O)c1 | -0.9 | 96 | i | 0.89 | 5 | -19 | 81
CCC(=O)Nc1ccc(Cl)c(NC(=S)NC(=O)c2ccco2)c1 | 0.0 | 102 | i | 0.89 | 8 | -60 | 95
Cn1c(SCC(=O)Nc2cc(Cl)cc(Cl)c2)nnc1-c1ccc2nonc2c1 | . | 100 | i | 1 | . | . | .
CC1CCN(c2ccc([N+](=O)[O-])cn2)CC1 | -0.6 | 129 | i | 0.99 | -2 | . | .
CSCC[C@H](NC(=O)OC(C)(C)C)c1nnc(SCc2cccc(F)c2)o1 | -0.4 | 98 | i | 0.95 | 7 | -38 | 133
COc1ccc2nc(NCCO)[nH]c2c1 | -2.1 | 101 | i | 0.98 | -1 | -57 | 66
Cc1ccc(C(=O)N2CCN(c3ccc([N+](=O)[O-])c(N4CCOCC4)c3)CC2)cc1 | 0.2 | 103 | i | 1.1 | 7 | . | .
S=c1[nH]nc(-c2cccs2)n1C1CCCCC1 | . | 69 | i | 0.98 | . | . | .
CC(=O)C1=C(C)NC(=O)NC1c1ccccc1OCC(=O)NCCc1ccccc1 (centres undefined) | -2.7 | 102 | i | 0.8 | -1 | 13 | 56
O=C(Oc1cccc2cccnc12)c1ccco1 | -2.0 | 94 | i | 0.75 | 10 | 48 | 146
COC(=O)c1cc(C(=O)OCC(=O)NCc2ccc3c(c2)OCO3)cc([N+](=O)[O-])c1 | -1.3 | 100 | i | 1 | -10 | 38 | 53
CCN(CC)S(=O)(=O)c1cccc(C(=O)Nc2cccc(C)c2)c1 | -1.4 | 86 | i | 0.69 | -2 | -21 | 113
CCCCC1N2CC3([N+](=O)[O-])CN1CC([N+](=O)[O-])(C2)C3(C)C (centres undefined) | -1.0 | 100 | i | 1 | -4 | . | .
Cc1ccc(NC(=O)c2ccc(OC(F)(F)F)cc2)cc1S(=O)(=O)N(C)C | 0.2 | 100 | i | 0.92 | 2 | . | .
O=C(Cc1sc(-c2ccccc2)nc1-c1ccccc1)Nc1ccc(Cl)cc1 | -2.3 | 60 | i | 1.1 | 1 | -42 | 92
Cc1ccccc1NC(=S)NCc1ccc2c(c1)cc(C)n2C | -1.0 | 109 | i | 1 | -5 | -22 | 100
O=C(Cn1c(-c2ccccc2Cl)nc2ccccc21)Nc1cccc(Cl)c1 | -0.1 | 92 | i | 0.84 | 9 | 7 | 112
O=C(Nc1ccccc1-c1nnn(CC(=O)N2CCCc3ccccc32)n1)c1ccco1 | -1.6 | 106 | i | 0.83 | -3 | -13 | 96
O=C(Cn1c2c(c(-c3ccccc3Cl)cc1=O)CCC2)NCCCN1CCOCC1 | . | 104 | i | 0.93 | . | . | .
Cc1cc2oc(=O)cc(CSc3nnc(-c4cccs4)o3)c2cc1C(C)C | -0.7 | 104 | i | 1 | 8 | . | .
CC(C)NC(=S)N1CCN(c2ncccn2)CC1 | -0.8 | 105 | i | 1.1 | 7 | 36 | 175
Cc1cc(-c2n[nH]c(=S)n2/N=C/C=C/c2ccco2)n[nH]1 | . | 96 | i | 1.1 | . | . | .
O=C(NNC(=O)C1CCN(Cc2ccccc2)CC1)c1cccs1 | . | 100 | i | 0.91 | -3 | -26 | 98
